Env fusion inh = HIV envelope-mediated fusion inhibition | HeLa-JRFL Env/CEM21 cell fusion, luciferase | AID 651610 | hit rate 1.1% among 360,000 | inhibition, % at 12.3 µM;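 active = mean replicate inhibition score of at least 50 and every replicate individually at or above 50; inconclusive = only one of the two criteria met; inactive = mean below 50 and not all replicates reaching 50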;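 also: 0% = plate neutral controls and 100% = maraviroc near 300 nM; one replicate is shown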
PABP FP inh = PABP-poly(A) binding inhibition. P11940. PABP-poly(A) RNA binding, fluorescence polarization. inhibition, % at 35 µM. hit rate 1% among 290,000;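 active = 50% or more with normal probe brightness, or confirmed in later tests; inconclusive = above 50% with abnormal brightness, or retests that disagree; inactive = below 50% or failed in later tests; about a fifth of its hits are not listed in these tables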;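 also: calls also rest on retests at 20 µM and on dose response follow-up; controls were probe without protein and protein plus probe with vehicle; some compounds called inactive have numbers as strong as hits; many hits fall short of the cut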
Target sequence (P11940 whole entry, looked up): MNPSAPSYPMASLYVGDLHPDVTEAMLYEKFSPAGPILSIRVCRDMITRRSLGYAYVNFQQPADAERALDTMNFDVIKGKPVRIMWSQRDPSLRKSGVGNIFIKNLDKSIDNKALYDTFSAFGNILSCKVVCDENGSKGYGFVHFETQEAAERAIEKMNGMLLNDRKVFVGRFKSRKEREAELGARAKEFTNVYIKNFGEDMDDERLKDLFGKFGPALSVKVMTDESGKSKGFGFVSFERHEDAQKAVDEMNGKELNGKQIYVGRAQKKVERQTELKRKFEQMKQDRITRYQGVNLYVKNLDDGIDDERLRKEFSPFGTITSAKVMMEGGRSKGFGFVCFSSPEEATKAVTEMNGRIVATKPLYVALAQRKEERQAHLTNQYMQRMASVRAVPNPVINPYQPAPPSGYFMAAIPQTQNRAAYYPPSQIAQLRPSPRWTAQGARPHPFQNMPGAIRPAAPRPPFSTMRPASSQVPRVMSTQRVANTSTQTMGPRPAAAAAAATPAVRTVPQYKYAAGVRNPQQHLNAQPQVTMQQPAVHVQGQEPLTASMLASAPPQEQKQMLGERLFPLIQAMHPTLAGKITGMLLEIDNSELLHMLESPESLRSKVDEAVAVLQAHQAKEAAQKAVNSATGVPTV
UUG fidelity = modulators of start codon recognition fidelity in yeast; S. cerevisiae UUG-firefly luciferase reporter, luminescence/redox ratio; activity score, % at 18.7 µM; hit rate 0.13% among 350,000; AID 602363;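 active = replicate mean at a twofold rise or more, about +100% in these data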;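 also: firefly luciferase made from a UUG start codon reports start codon fidelity; reporter light over untreated wells divided by growth signal over untreated wells; some hits fall short of that in this replicate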
Rce1 inh = yeast Ras-converting enzyme inhibition. AID 2563. yeast membranes, quenched prenylated peptide cleavage fluorescence. calls only. hit rate 0.27% among 290,000;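 active = fall in fluorescence gain of 50% or more versus controls, with final raw signal at or below 3038400; inconclusive = same 50% fall but final raw signal above 3038400; inactive = fall in fluorescence gain under 50%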;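 also: plate controls were neutral control wells for no effect and wells lacking membranes for full effect; tested at 10 µM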
Target sequence (Q03530 whole entry, looked up): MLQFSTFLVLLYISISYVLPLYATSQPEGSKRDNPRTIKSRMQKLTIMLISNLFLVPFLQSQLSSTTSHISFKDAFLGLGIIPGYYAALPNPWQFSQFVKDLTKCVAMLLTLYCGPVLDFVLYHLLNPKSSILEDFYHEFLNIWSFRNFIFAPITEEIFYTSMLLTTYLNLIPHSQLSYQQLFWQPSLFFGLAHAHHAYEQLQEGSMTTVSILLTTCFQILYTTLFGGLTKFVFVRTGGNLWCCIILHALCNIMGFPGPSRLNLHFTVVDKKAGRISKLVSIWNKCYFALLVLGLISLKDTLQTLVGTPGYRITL
MT1-MMP act inh = blocks activation of human MT1-MMP; HT1080 RFP-PRO-GFP cells, GFP/RFP ratio fluorescence, overnight; percent of plate control window, DMSO zero; GFP/RFP ratio change, % at 20 µM; hit rate 0.061% among 360,000;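 active = GFP/RFP ratio change of at least 30% with cell ATP level not reduced by more than half and red fluorescence within 50% of control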; also: strong numbers were not always called active
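Compound: 20 µM single dose, 1% DMSO / System: HT1080 RFP-PRO-GFP cells / Controls: DMSO and RFP-L50D-GFP cell wells / Read-out basis: GFP/RFP fluorescence ratio / Schedule: overnight compound exposure at 37 °C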
eIF4H inh = inhibitors of RNA binding by human eIF4H; Q15056; eIF4H fluorescence polarization binding assay; inhibition, % at 35 µM; hit rate 0.94% among 290,000; AID 2012;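 active = 50% or more with normal probe brightness, or confirmed in later tests; inconclusive = above 50% with abnormal brightness, or retests that disagree; inactive = below 50% or failed in later tests; about a fifth of its hits are not listed in these tables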;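 also: calls also rest on retests at 20 µM and on dose response follow-up; 0% = protein and probe with vehicle and 100% = probe without protein; strong numbers were not always called active; many hits fall short of the cut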
CSC inhib = blocks cancer stem cells; cancer stem cell-like cells viability, luminescence; hit rate 1.1% among 300,000; inhibition, % at 7.5 µM;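 active = mean at 75% or more and at least half the replicates too; inconclusive = mean and replicates disagree; tested in HMLE shEcad cells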;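 also: 0% = median of negative and 100% = median of positive control wells; the first replicate is given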
MT1-MMP act inh RFP = also measured in MT1-MMP act inh; calls as there; RFP signal change, %; measured here: RFP expression control read;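 0 = vehicle wells; hits needed this value within 50% of zero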
* marks the source's active call; other numbers are inactive results; i = inactive; ? = inconclusive; / = no result given.

Every second line gives: Env fusion inh, PABP FP inh, UUG fidelity, Rce1 inh, MT1-MMP act inh, MT1-MMP act inh RFP, eIF4H inh, CSC inhib
COc1cc(C)ccc1OCc1cc(C(=O)N2C[C@H]3CC[C@H]2C3)no1
→ 4.0, 5.2, 7.8, i, 0.9, 2.2, 1.0, 19.3
O=C(COC(=O)Cc1ccc(S(=O)(=O)N2CCOCC2)s1)Nc1ccc([N+](=O)[O-])cc1
→ /, /, 11.2, /, -4.5, -1.2, /, -9.0
COc1ccccc1N1CCN(C(=O)CCC(=O)N2CCN(c3ccc(F)cc3)CC2)CC1
→ 1.4, 6.1, -5.5, i, 2.8, -12.1, -5.4, -3.5
Cn1cc(CN2CCN(Cc3ccc4c(c3)OCO4)CC2)c(-c2ccccc2F)n1
→ 4.9, 6.6, /, i, -1.6, 3.8, -3.2, -7.0
Cc1ccc(Cl)cc1N1CCN(C(=O)CSc2ccsc2[N+](=O)[O-])CC1
→ /, -9.7, 0.8, i, -8.1, -15.4, 14.1, -5.9
C/C(=N\NC(=O)C(N)=O)c1ccc(O)cc1O
→ 2.7, 15.6, -4.7, i, 6.2, 4.7, 8.5, -4.3
NC(=O)c1cc([N+](=O)[O-])ccc1NCc1cccc([N+](=O)[O-])c1
→ -50.8, /, -15.0, /, -1.0, -4.3, /, 0.8
COc1ccc(Cl)cc1NC(=O)CN(C)C(C)C(=O)NCC1CCCCC1 (stereo not drawn)
→ 2.9, 3.0, -10.0, /, -3.2, -4.8, 1.7, -18.7
CCOc1ccccc1NC(=O)CN1CCN(C(=O)C2CCCO2)CC1 (stereo not drawn)
→ -134.5, -3.7, -10.6, i, -11.8, -2.7, -7.6, -3.2
Cc1ccc(-n2c(SCC(=O)NNC(=S)Nc3ccccc3)nc3ccccc3c2=O)cc1
→ -36.9, -2.9, -17.6, i, -4.0, -5.3, 10.8, -4.9
COc1ccc(S(=O)(=O)N2CCCCC2)cc1NC(=O)C1COc2ccccc2O1 (stereo not drawn)
→ /, /, -7.3, i, 2.6, -5.5, /, -4.3
COc1ccccc1CNC(=O)C(=O)NCC1OCCN1C(=O)c1cccs1 (stereo not drawn)
→ -2.6, -4.5, -14.2, i, 4.5, 2.5, 6.6, -18.4
CN(C)CCN1C(=O)c2oc3ccc(Cl)cc3c(=O)c2C1c1cccc(Br)c1 (stereo not drawn)
→ -35.9, -0.1, -16.1, i, 5.7, 7.1, -7.2, /
COc1cc2ccc(C(C)=NNC(N)=S)cc2cc1OC
→ -102.9, /, -27.3, /, 12.1, 3.9, /, /
Cc1nc(CN2CCCCC2)cc(=O)[nH]1
→ -1.2, -6.0, -14.0, i, -2.0, 1.2, -10.7, -11.5
COc1cc(C)ccc1OCCOc1c(C)cccc1Cl
→ /, 3.8, /, i, -5.0, 1.2, 1.8, -1.7
Cc1ccc(-c2nnc(N)s2)cc1
→ /, 9.3, /, i, -0.7, 1.7, -1.2, -0.2
CCOc1ccccc1NC(=S)N1CCN(c2ccccc2)CC1
→ 9.1, 2.9, -16.9, i, -0.1, -0.8, -10.2, -12.6
Oc1cccc(-c2ccc3nccn3c2)c1
→ 36.4, /, 0.9, /, -5.1, -5.8, /, /
O=C(Nc1ccc(F)cc1)c1ccccc1
→ /, -6.0, -11.8, i, 0.9, -1.3, 5.6, 5.5
COc1ccc2[nH]c(C)c(CCN(Cc3cccs3)C(=S)Nc3ccccc3OC)c2c1
→ -18.3, 5.8, -12.5, i, -52.0, -13.0, ?, 2.3
CCOC(=O)C1CCN(S(=O)(=O)CCNC(=O)c2ccc3c(c2)OCO3)CC1
→ 5.9, /, 0.2, i, 0.8, 3.0, /, -8.9
O=C(NC1CCCC1)c1nc2c(nnn2Cc2cccc(Cl)c2)c(=O)[nH]1
→ -109.4, -12.7, 3.0, i, 7.6, -1.3, -2.5, 7.6
C(=N\c1nc2ccccc2n1CCN1CCCCC1)/c1ccc2c(c1)OCO2
→ 41.2, -3.8, -20.3, i, 4.2, 1.2, -0.7, 17.6
O=C1NC(=O)/C(=C\c2ccc(Br)o2)S1
→ -18.4, 24.0, -13.6, i, 4.1, 2.8, 34.4, 13.8
CCOC(=O)c1cc2c(=O)n3ccccc3nc2n(CCCOC)c1=NC(=O)c1ccncc1
→ 11.3, 10.8, /, i, -5.7, -3.1, -7.5, 0.7
COc1ccc(-c2cc(-c3ccc(OC)cc3)[nH]n2)cc1
→ -81.1, 7.5, -4.4, i, 0.0, -1.4, -1.2, /
O=C(CCC1CCCCC1)Nc1ccccc1O
→ -162.5, -1.0, -25.1, i, 3.2, -0.8, 1.2, 27.3
O=C(COC(=O)c1ccc2ccccc2n1)Nc1ccccc1Br
→ -7.2, /, -14.2, /, -3.9, -5.3, /, /
O=C(Nc1ccc(Br)cc1)NC1CCCCCCC1
→ -94.6, -4.2, -7.7, i, -3.4, -5.4, 0.6, -5.3
COc1ccc(NS(=O)(=O)c2cccc(C(=O)N/N=C(\C)c3ccc(-n4ccnc4)cc3)c2)cc1
→ /, 7.1, -0.2, i, 4.1, 0.5, 7.2, 95.2*
COc1ccc(CCc2ccc3ccccc3n2)cc1
→ -88.7, /, -12.9, /, 2.5, -3.4, /, /
CC1=NN(C(C#N)c2ccc(F)cc2)C(c2ccccc2)C1 (stereo not drawn)
→ -5.6, 5.3, 2.6, i, -2.6, 0.7, -9.1, -5.4
O=c1c2cc(NC(=S)NCc3ccccn3)ccc2nc2n1CCCCC2
→ -6.8, -9.4, /, i, 0.3, 2.0, 7.5, -13.6
O=C(NC1CCCCC1)c1n[nH]c2c1CCCCC2
→ 69.1*, /, -87.1, /, 2.3, 9.1, /, /
COc1ccc2[nH]c3c(c2c1)CCN1C(=O)N([C@@H](C)C(=O)NC2CCCC2)C(=O)[C@]31C
→ /, 3.6, -6.3, i, -0.8, -0.8, 6.0, -13.1
O=C(c1cc(C2CCCCN2C(=O)CCCc2ccccc2)on1)N1CCOCC1 (stereo not drawn)
→ 13.1, /, -4.0, /, 3.7, 3.1, /, /
COC(=O)CC1C(=O)NCCN1C(=O)c1cc([N+](=O)[O-])ccc1Cl (stereo not drawn)
→ 6.4, -2.8, -10.0, i, -0.1, 4.5, -5.7, 1.5
CC(=O)Nc1ccc(NC(=O)COC(=O)COc2ccc3ccccc3c2)cc1
→ -3.9, /, -14.6, /, 0.6, 1.9, /, -9.5
CN(Cc1ccccc1)C(=O)COC(=O)c1cc(-c2ccc(Cl)s2)nc2ccccc12
→ -57.3, 1.4, -17.1, /, -1.9, -1.5, 4.6, -0.1
Cc1ccc2[nH]c3c(c2c1)CC/C(=C/c1ccccc1)C3=O
→ -322.6, -0.5, -10.2, i, -11.6, -10.1, -7.2, 8.9
COc1ccc(OCC(=O)Nc2cc(S(=O)(=O)N3CCCC3)ccc2OCC(F)(F)F)cc1
→ 3.1, /, 4.4, /, 1.0, -1.1, /, /
Cc1cccc(Nc2nnc(SCC(=O)Nc3cccc(S(=O)(=O)N4CCCCC4)c3)s2)c1
→ -17.8, -2.1, -9.3, i, -6.3, -15.8, -6.3, 23.2
O=C(c1cccc(C(F)(F)F)c1)C1CCCN(Cc2cccn2-c2ccccn2)C1 (stereo not drawn)
→ 5.2, 2.2, 2.0, i, 5.4, 2.3, -1.9, 2.4
OC1=C(O)c2nc3cc(C(F)(F)F)ccc3nc21
→ -48.6, 11.7, -31.0, i, 1.6, 5.8, -11.9, -1.2
COc1ccc(OC)c(NC(=O)CSc2nnc(Cc3cccn3C)n2-c2ccc(F)cc2)c1
→ 0.4, -13.7, -7.1, i, 3.0, 0.5, 9.6, -21.7
O=C(NCc1cccs1)c1ccc(CS(=O)Cc2ccccc2Cl)o1 (stereo not drawn)
→ -4.3, -4.5, -2.6, i, 0.1, -0.2, -11.8, -0.6
CCOc1cc(C2NC(=O)N(C)C(C)=C2[N+](=O)[O-])ccc1OC(C)=O (stereo not drawn)
→ -7.8, -9.8, /, i, 4.4, 13.5, 23.8, -1.7
COC(=O)c1c(-c2ccccc2)c[nH]c1C
→ -57.4, -6.0, /, i, -4.5, -1.9, 1.3, -9.6
O=C(CSCc1ccccc1)NCc1ccc2c(c1)OCO2
→ -10.0, -3.4, -14.3, i, 11.4, 2.5, -13.4, -4.0
Cc1cc(C)n2nc(C(=O)OCCOc3cccc(Br)c3)nc2n1
→ -16.2, -4.0, -12.3, i, 2.3, 0.5, -1.1, /
CN(C)S(=O)(=O)c1ccc(NC(=O)c2ccc3ncsc3c2)cc1
→ /, 9.6, /, i, /, /, -5.4, -29.5
C=CCNC(=O)c1c(N)n(-c2cccc(S(N)(=O)=O)c2)c2nc3ccccc3nc12
→ /, -3.6, -17.2, i, 7.3, 2.0, -3.4, 17.6
CCCC1=C/C(=C/c2ccc(-c3ccccc3OC)o2)C(=O)O1
→ 0.7, 5.9, 0.2, i, -15.9, 5.6, 18.9, -3.5
O=C(Nc1ccc(F)cc1F)c1c(C(F)(F)F)ccnc1Oc1ccccc1
→ 17.7, -1.6, -7.6, i, 0.8, -0.5, 5.0, -1.9
COc1cccc(/C=N/Nc2ncc(C)c(=O)[nH]2)c1OC
→ 4.6, -12.2, -9.2, i, 3.3, -1.1, 1.3, 3.0
Cn1c(CN2CCCC2)nc2cc(NC(=O)c3ccc(Cl)cc3)ccc21
→ 22.5, 12.5, -24.9, i, 4.9, -9.4, 4.7, 9.2
CCCn1c(CCC(=O)O)ccc1-c1ccccc1
→ -22.6, -3.1, /, i, 1.3, 1.1, -0.3, 1.6
CN1C(=S)SC(C)(C)C1N(O)C(=O)Nc1ccc(Cl)cc1 (stereo not drawn)
→ 6.6, -4.8, /, i, -2.2, -1.9, -0.9, -10.0
CCCCNS(=O)(=O)c1ccc(OC)c(C)c1
→ /, -13.1, -2.1, i, 2.3, -0.8, -4.1, -4.9

(cont.)
Every second line gives: Env fusion inh, PABP FP inh, UUG fidelity, Rce1 inh, MT1-MMP act inh, MT1-MMP act inh RFP, eIF4H inh, CSC inhib
N#Cc1ncc(Cc2ccccc2)nc1C#N
→ 7.1, -2.6, -26.4, i, -18.2, 14.7, 8.3, 41.9
CCOCCCNC(=O)Cn1ncc2c(=O)oc3ccccc3c21
→ 6.9, 0.4, -20.8, i, 2.4, 2.7, 28.1, -9.5
O=C(NCc1cccs1)NC1CCCCC1
→ /, 0.0, -12.5, i, 1.6, 1.4, -9.8, 3.7
O=C(NCCCc1ccccc1)c1cccs1
→ /, 6.4, -19.2, i, -0.3, 0.0, -5.9, -5.7
Cc1cccc(C)c1NC(=O)C1C2C=CC(C2)C1C(=O)NCc1ccccn1 (stereo not drawn)
→ /, 0.5, /, i, 3.2, 2.1, 0.5, -5.7
CC(C)CCNC(=O)COC(=O)c1cc(Br)c(Br)s1
→ 1.2, -8.3, /, i, -0.3, 1.7, -1.2, /

Screening results as filed in PubChem BioAssay.

The list is partial (hit frequency here may not be typical).
